Bead autofluor: flagged as autofluorescent in microsphere protease counterscreen | compound autofluorescence counterscreen, microsphere flow cytometry; active compounds read high | fluorescence intensity (no concentration beside the values) | actives 3.1% (n = 360,000) | AID 624483;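 active means at least 3 SD above the mean of all compounds, about 16000 in these data; inconclusive means too few beads counted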;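 further: 100 nL of 1 mM stock went into each well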
Mtb hypoxia inh: PubChem AID 1159583 | M. tuberculosis hypoxia-regulated fluorescent reporter, fluorescence | fluorescence inhibition, % (test concentration not listed) | actives 0.1% (n = 300,000);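 active means 35 to 45% if threefold the growth effect, above 45% if 1.5-fold the growth effect; inactive means the rest, general growth blockers included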;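 further: wells of about 50 µL received 100 nL stock; 0% = vehicle wells and 100% = reference inhibitor wells; whole bacteria with a GFP reporter of the hypoxia response; strong numbers were not always called active; many hits fall short of the cut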
BJeLR viability: MLPCN primary cell-based screen for lethality selective to Ras in HRASV12 cells | BJeLR (HRASV12) viability, CellTiter-Glo ATP luminescence, 48 h; reference of the scale not given here | inhibition, % (concentration not given with the values) | actives 0.17% (n = 300,000) | AID 1554, 2009;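 active means replicate mean above 50%; inconclusive means above 50% but judged a plate artefact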;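 further: 50 nL library stock added to about 25 µL; numbers are from one replicate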
ugtP null kill: growth inhibition of ugtP-null S. aureus, primary screen, RN4220 ugtP deletion, OD600; 16 h; some inactives read as strong as hits; growth inhibition, % (concentration not given with the values); actives 0.54% (n = 330,000);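 active means z-score under -3 and OD600 up to 0.15 on both plates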;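 further: plate controls were untreated wells for no effect and antibiotic for full effect; wells of about 80 µL received 100 nL stock; the first replicate is given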
PrP 5UTR inh: inhibition of PrP 5' UTR reporter expression; actives 0.35% (n = 340,000); AID 488862, 2010; inhibition, % (no concentration beside the values); cell-based PrP 5' UTR mRNA reporter, plate reader;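 active means every replicate at 50% or more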;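 further: 0 = median of the neutral control wells; tested in H4 reporter cells; numbers are from one replicate; inactives centre near -14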
Sa RN4220 lethal: growth inhibition of S. aureus RN4220, primary screen, OD600; 16 h; inhibition, % (concentration not given with the values); actives 0.33% (n = 330,000); AID 1259311, 2017;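 active means z-score of -3 or lower and OD600 up to 0.18 on both plates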;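 further: plate controls were untreated cells for no effect and reference antibiotic for full effect; stock transfer was 100 nL into about 80 µL; one replicate is shown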
Mtb hypoxia inh growth: also measured in Mtb hypoxia inh; calls as there; growth inhibition, %; measured here: M. tuberculosis growth (absorbance);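 0% = vehicle and 100% = reference antibiotic; read after six days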
Numbers without * were called inactive; u = inconclusive; x = not tested or not shown.

Structure	PrP 5UTR inh	BJeLR viability	Sa RN4220 lethal	Mtb hypoxia inh growth	Mtb hypoxia inh	Bead autofluor	ugtP null kill
Fc1ccc(-c2nnc3ccc(N4CCc5ccccc5C4)nn23)cc1	-12.6	-5.8	3.7	-16.9	-3.4	5881	3.7
Cc1ccc(OCC(=O)Nc2ccc(-c3nnc(-c4ccco4)o3)cc2)cc1	-40.2	6.3	x	x	x	2510	x
CCOC(=O)c1c(C)[nH]c(C(=O)NN=Cc2ccc(Br)cc2)c1C	x	x	-1.0	11.4	5.5	x	-9.7
COc1ccccc1CNC(=O)c1cc2ccccc2oc1=O	-40.3	-4.6	0.8	-6.9	9.8	5438	-2.3
CC1CN(Cc2ccccc2)C(=S)NC1=O (stereo not drawn)	-35.6	x	1.6	8.9	10.7	3369	1.7
NNC(=O)c1nnn(-c2nonc2N)c1CN1CCc2ccccc2C1	-14.9	1.8	6.1	0.2	9.1	3424	-3.3
CC(C)NS(=O)(=O)c1ccc(NC(=O)CCc2ccccc2)cc1	-6.7	-6.0	3.7	14.0	-2.6	21469*	-2.8
CCOCCc1nnc(NC(=O)Cc2ccccc2)s1	-10.4	-7.3	3.6	7.2	6.1	2343	2.0
Cc1cccc(NC(=S)N2CCCN(c3ncccc3[N+](=O)[O-])CC2)c1	-14.8	9.1	5.4	-4.5	-5.9	3124	1.1
CNC(=O)NC(=O)COc1ccc2oc3c(c2c1)CCCC3	-22.9	6.9	4.7	9.1	4.7	5173	12.3
O=C(c1ccco1)N1CCN(S(=O)(=O)c2cccs2)CC1	-4.8	1.9	5.0	7.4	15.0	4122	10.9
COc1ccc(/C=N/NC(=O)c2ccc(Cl)c(S(N)(=O)=O)c2)cc1OCC(N)=O	-19.0	-13.6	x	x	x	4074	x
O=C(Nc1ccccc1N1CCOCC1)c1ccc2ccccc2n1	-17.5	13.7	4.9	3.9	-1.8	7160	3.3
CCOc1ccc(CCNC(=O)COC(=O)c2cccc(S(=O)(=O)N3CCCCC3)c2)cc1OCC	8.7	2.5	0.5	1.0	-1.3	5949	3.2
Cc1cc(C)cc(NC(=S)N(Cc2cccc(Br)c2)CC2CCC(C(=O)O)CC2)c1 (stereo not drawn)	-39.4	10.0	8.9	-2.5	-0.7	7047	29.7
COc1ccc(C2CC(=O)C=C(c3cccc(Br)c3)C2)cc1 (stereo not drawn)	x	x	4.4	4.0	7.9	x	5.2
CCOC(=O)c1c(NC(=O)Nc2ccc(F)cc2)sc2c1CCN(C)C2	-5.3	3.1	-0.4	13.0	-1.9	5118	2.3
CC(C)(C)OC(=O)N[C@@H](Cc1ccccc1)C(=O)N[C@@H](CO)[C@H](O)[C@@H]1C[C@@H]1C(=O)NC1CC1	-8.5	-11.7	x	x	x	3937	x
CCOC(=O)c1c(C)[nH]c2ccc(O)cc12	-5.7	-3.3	0.0	-0.6	1.6	3752	-2.7
O=S(=O)(NN=Cc1ccccc1O)c1ccc(Cl)cc1	x	x	14.3	1.0	5.5	x	-7.9
COCCNc1nnc(SCC(=O)NNC(=O)c2ccco2)s1	-14.5	x	3.9	5.3	5.7	4145	4.1
O=C(NCc1ccco1)C(c1ccc(F)cc1)N(Cc1cccnc1)C(=O)Cn1nnc2ccccc21 (stereo not drawn)	-43.8	-2.7	-1.1	x	x	4925	-3.9
C=CCNC(=O)CC(=O)N/N=C/c1ccc(C(=O)OC)cc1	-18.6	-9.2	x	x	x	2280	x
COc1cc(C=NNC(=O)c2cccc([N+](=O)[O-])c2)cc(OC)c1O	x	x	-1.7	-0.8	-2.5	x	-3.0
CCCCNC(=O)C1CCCN1C(=O)Nc1ccccc1 (stereo not drawn)	-22.5	-1.5	5.5	2.3	-2.2	3755	-5.5
CCN(CC)c1ccc(NC(=O)c2ccc(NC(=O)C3CCCO3)cc2)c(C)c1 (stereo not drawn)	-14.0	x	3.2	23.7	10.5	9622	-4.2
Cc1c(C(=O)N/N=C/c2ccc(-c3ccccc3[N+](=O)[O-])o2)sc(N)c1C#N	-30.2	-0.1	x	x	x	8853	x
CCOC(=O)c1ccc(CNC(=O)C(Cc2c[nH]c3ccccc23)NC(C)=O)o1 (stereo not drawn)	6.5	-8.8	1.4	4.6	-9.3	8411	-1.8
O=C(Nc1ccccc1N1CCCC1)c1ccc(F)c(S(=O)(=O)N2CCOCC2)c1	-54.5	-2.2	3.6	-2.3	10.5	6019	3.8
COc1ccc(NC(=O)c2nc[nH]c2C(=O)N[C@H](C)c2ccccc2)cc1	3.9	5.4	x	x	x	2900	x
O=C(O)C1C2C=CC(C2)C1C(=O)NCc1ccoc1 (stereo not drawn)	-8.9	-11.7	4.5	10.6	7.7	2420	1.9
Cc1cc(Br)ccc1Nc1nc(N)nc(N)c1N=O	-19.5	x	5.3	4.7	2.2	3040	-2.9
COc1ccc(NC(=O)c2oc3ccccc3c2NC(=O)C2CC2)cc1OC	-17.2	9.6	-1.3	2.4	4.8	6430	-0.4
CCC(C)c1ccccc1N1CC(C(=O)NCCC2=CCCCC2)CC1=O (stereo not drawn)	-28.2	x	4.8	4.8	7.4	3542	-0.5
COC(=O)COc1cccc2c(=O)n(CC(=O)N3CCCc4ccccc43)ccc12	-15.1	6.3	-1.2	-2.5	-7.0	4465	-3.7
Clc1ccc(-c2nnc(CSc3nnc(-c4cccs4)n3Cc3ccccc3)o2)cc1	-6.2	19.2	13.5	-10.2	-4.4	2169	7.9
CCOC(=O)N1CCN(C(=O)C2CCN(S(=O)(=O)c3ccc(OCC)cc3)CC2)CC1	-11.7	-3.2	1.2	3.9	0.5	5720	0.5
Cc1ccc(-n2nc3c(=O)n(CC(=O)c4ccc(F)cc4)nc(C)c3c2C)cc1	-1.7	9.4	4.4	5.4	8.2	2036	-5.3
COc1ccc(-n2c(=O)c3ccccc3n(Cc3ccc(F)cc3)c2=O)cc1OC	-19.4	6.9	8.0	0.9	5.7	4241	2.4
COc1ccc(N2CCN(C(=O)C3CC(O)CN3S(=O)(=O)c3ccc([N+](=O)[O-])cc3)CC2)cc1 (stereo not drawn)	2.4	-2.7	8.0	-2.2	-2.8	2005	4.0
CC(C)(C)c1ccc(C(=O)NNC(=S)NCC2CCCO2)cc1 (stereo not drawn)	-24.5	4.7	3.8	7.9	9.7	2162	9.4
Cc1ccc(C)c(OCCC(=O)OCC(=O)Nc2ccc(C)c(S(=O)(=O)N3CCCCC3)c2)c1	-16.2	7.9	7.1	-7.9	-5.1	u	5.0
COC(=O)CC1(CC(=O)OC)C(=O)NC(=O)NC1=O	-23.7	2.0	-1.6	5.9	-2.2	x	-3.3
COc1ccc(/C(O)=C2/C(=O)C(=O)N(c3ncccn3)C2c2ccc(C(C)(C)C)cc2)cc1 (stereo not drawn)	x	13.6	9.9	-0.3	14.3	x	-64.2
Cc1ccc(-n2c(Cc3cccn3C)nnc2SCC(=O)NC2CCCCC2)cc1	x	-2.1	-0.4	-3.9	10.3	8600	0.0
CCCCN(C(=O)COC(=O)c1ccc(C=O)cc1)c1c(N)n(CCC)c(=O)[nH]c1=O	-23.1	x	5.6	2.5	9.2	4523	12.1
O=C(COc1ccccc1-c1ccccc1)N/N=C/c1ccccn1	-18.5	1.0	x	x	x	3256	x
COc1ccc(CNC(=O)COC(=O)c2ccc(C)c(S(=O)(=O)N3CCOCC3)c2)cc1	-2.9	x	-1.6	3.4	-2.4	5302	-3.1
COc1ccccc1C(=O)NC(=S)N1CCCc2ccccc21	3.3	4.7	7.0	6.8	6.2	7660	-4.8
O=S(=O)(N/N=C/c1ccc(N2CCOCC2)cc1)c1ccccc1	-0.7	0.3	x	x	x	4491	x
COC(CNC(=O)CNC(=S)N(CCCN1CCOCC1)Cc1cccs1)OC	-0.4	-3.6	6.5	8.0	11.4	3509	3.5
CCOc1ccc(N(CC(=O)NC2CCCCC2)C(=O)CNC(=O)c2cccs2)cc1	-11.1	-5.7	4.8	-3.2	-1.2	4626	2.7
Cc1ccc(C2(c3noc(CN(C)Cc4cccnc4)n3)CCCC2)cc1	-20.8	5.8	x	x	x	4664	x
CC(=O)Cc1nsc(NC(=O)C2Cc3ccccc3C(=O)O2)n1 (stereo not drawn)	0.2	8.9	-3.2	0.3	-1.2	5902	-8.8
COc1ccc(C)cc1N(CC(=O)N1CCCCCC1)S(=O)(=O)c1ccc(C)cc1	-37.4	-0.3	6.9	8.8	9.4	6608	4.4
Cc1ccc(NC(=O)CCN2CC(C)OC(C)C2)cc1 (stereo not drawn)	-96.4	-2.4	-2.4	9.0	-5.6	3910	-3.2
CCCc1ccc(OCC(O)CN2CCN(c3ccccn3)CC2)cc1 (stereo not drawn)	-6.2	-0.9	3.2	2.9	-2.4	5039	6.0
CCOc1cc(C=NNC(=O)c2ccc(CSc3nncn3C)cc2)ccc1OCC(=O)N1CCOCC1	x	x	3.2	8.1	11.2	x	3.0
CC(C)(C)C(=O)NN=C1CCC(c2ccccc2)CC1 (stereo not drawn)	-0.7	2.5	-0.3	9.2	-1.7	5954	-0.5
CN(C(=O)COC(=O)CN1C(=O)C2CC=CCC2C1=O)c1ccccc1 (stereo not drawn)	-2.2	-1.6	1.3	9.8	-3.3	6478	-0.9

By substructure: the entries above containing bromine
Structure	PrP 5UTR inh	BJeLR viability	Sa RN4220 lethal	Mtb hypoxia inh growth	Mtb hypoxia inh	Bead autofluor	ugtP null kill
CCOC(=O)c1c(C)[nH]c(C(=O)NN=Cc2ccc(Br)cc2)c1C	x	x	-1.0	11.4	5.5	x	-9.7
Cc1cc(C)cc(NC(=S)N(Cc2cccc(Br)c2)CC2CCC(C(=O)O)CC2)c1 (stereo not drawn)	-39.4	10.0	8.9	-2.5	-0.7	7047	29.7
COc1ccc(C2CC(=O)C=C(c3cccc(Br)c3)C2)cc1 (stereo not drawn)	x	x	4.4	4.0	7.9	x	5.2
Cc1cc(Br)ccc1Nc1nc(N)nc(N)c1N=O	-19.5	x	5.3	4.7	2.2	3040	-2.9

Next records follow.
Structure	PrP 5UTR inh	BJeLR viability	Sa RN4220 lethal	Mtb hypoxia inh growth	Mtb hypoxia inh	Bead autofluor	ugtP null kill
Cc1n[nH]c(C)c1CCN	-25.9	1.6	-8.9	12.7	14.2	2672	-2.8
CCOP(=O)(OCC)C(CC)N1CCOCC1 (stereo not drawn)	-1.6	3.5	-4.5	x	x	4771	-2.9
CCN(CC)C(=O)[C@H]1C[C@H](CC(=O)NCCCn2ccnc2)C(=O)N2CCc3c([nH]c4cc(-c5ccco5)ccc34)[C@]12C	-8.8	x	-0.4	7.0	0.3	3415	10.2
COc1ccc(Cn2nnc3c(=O)[nH]c(C(=O)NCCc4ccc(F)cc4)nc32)cc1OC	-9.7	3.7	-2.6	x	x	5518	4.2
O=C(O)c1ccccc1C(=O)N1CCN(c2ncccn2)CC1	x	1.1	2.1	-9.2	-6.6	3516	16.5
Cc1ccccc1-c1nc(SCc2cccnc2)c2c(=O)n(C)c(=O)n(C)c2n1	5.2	-2.2	4.4	7.1	8.3	4211	-60.8
Cc1ccc(-n2c(SCC(=O)Nc3cc(C)on3)nc3ccccc3c2=O)cc1	-18.2	10.4	1.2	-2.8	-1.7	11049	5.0
CCOC(=O)/C(C#N)=C/c1cn(CCOc2ccccc2)c2ccccc12	-25.7	-2.6	-5.5	11.1	-4.0	2318	-22.0
COc1cc(NC(=O)c2ccc(Br)o2)ccc1NC(=O)C(C)C	-27.7	8.7	-13.5	13.6	1.1	3318	-7.4
Cc1ccccc1NC(=O)NC1(C(=O)NCCCN2CCOCC2)CCCCC1	-17.3	-12.1	3.8	5.5	11.9	2914	1.3
CCN(CCn1cccn1)C(=O)CC1C(=O)NCCN1Cc1cccc(OC)c1OC (stereo not drawn)	-9.3	9.2	1.4	9.2	5.4	2373	2.9
O=C(C1CCCN(S(=O)(=O)c2ccccc2)C1)N1CCN(c2ccccc2)CC1 (stereo not drawn)	11.6	4.3	0.0	-2.0	-1.4	3835	-2.4

Screening data as filed in PubChem BioAssay.
